# HIV TAR-Tat: HIV-1 TAR-Tat binding disruption | HIV-1 TAR RNA, Tat peptide displacement FRET; stronger effect = higher value | z-score (test concentration not listed) | 100,000 tested, 0.6% active;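 note: score is relative to mean and SD of negative controls; some compounds called inactive have numbers as strong as hits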
# CDC25B CDK2 inh: human CDC25B-CDK2/CyclinA binding inhibition; AID 1259370; z-score (test concentration not listed); 94,000 tested, 0.72% active; P30305+P24941; HTRF CDC25B-CDK2/CyclinA binding, anti-His/anti-Flag; stronger effect = higher value;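 note: score is relative to mean and SD of negative controls; strong numbers were not always called active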
# Active calls of the source: *; / = no result given; & = joins results of further samples.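 Rule for the calls: active = z-score from 3 up in half or more of its runs; inactive = the rest.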
# Preview, six compounds:
SMILES,HIV TAR-Tat,CDC25B CDK2 inh
CCOC(=O)C1CCCN(C(=O)c2cc3c(=O)n4cccc(C)c4nc3s2)C1 (stereo not drawn),/,0.32
CCn1nc(C)cc1C(=O)n1nc(C)c(Sc2ccc(C(F)(F)F)cn2)c1C,/,-1.6
CCOc1ccc(-c2n[nH]c3c2C(c2ccco2)NC3=O)cc1 (stereo not drawn),-1,-0.86
Cc1ccc(-n2c(=O)c3c(C)c(C)sc3n(Cc3cc(=O)n4ccccc4n3)c2=O)cc1C,/,-0.04
CCc1c(C)c(C#N)c2nc3ccccc3n2c1NC,-0.66,-2.1
O=C(NCc1ccc2c(c1)OCO2)C1CCCN(S(=O)(=O)c2ccc3[nH]c(=O)oc3c2)C1 (stereo not drawn),0.99,/

# All compounds of this part, repeating the preview:
SMILES,HIV TAR-Tat,CDC25B CDK2 inh
CCOC(=O)C1CCCN(C(=O)c2cc3c(=O)n4cccc(C)c4nc3s2)C1 (stereo not drawn),/,0.32
CCn1nc(C)cc1C(=O)n1nc(C)c(Sc2ccc(C(F)(F)F)cn2)c1C,/,-1.6
CCOc1ccc(-c2n[nH]c3c2C(c2ccco2)NC3=O)cc1 (stereo not drawn),-1,-0.86
Cc1ccc(-n2c(=O)c3c(C)c(C)sc3n(Cc3cc(=O)n4ccccc4n3)c2=O)cc1C,/,-0.04
CCc1c(C)c(C#N)c2nc3ccccc3n2c1NC,-0.66,-2.1
O=C(NCc1ccc2c(c1)OCO2)C1CCCN(S(=O)(=O)c2ccc3[nH]c(=O)oc3c2)C1 (stereo not drawn),0.99,/
O=C(ON(Cc1c(F)cccc1Cl)Cc1c(F)cccc1Cl)C1CC1,/,0.53
CCOC(=O)C(O)(NC(=O)NC(C)=O)C(F)(F)F (stereo not drawn),/,-0.88
CCOC(=O)CSc1nc2ccccc2c(=O)n1Cc1cccs1,1.5,/
CC(NC(=O)CSc1ccsc1[N+](=O)[O-])c1ccc2c(c1)OCCO2 (stereo not drawn),0.69,-1.8
Cc1ccc(-c2nc(Cn3cnc4onc(C)c4c3=O)c(C)o2)cc1,0.86,/
CC1(C)CCC2(C=CC(=O)C=C2)C(SCc2ccccc2)=N1,0.72,-0.63
COc1ccc(C2OC(c3cc(Br)ccc3OC(C)=O)=NN2C(C)=O)cc1OC (stereo not drawn),0.89,/
COc1ccc(S(=O)(=O)NCc2nc(-c3ccc(OC)c(OC)c3)no2)cc1,0.75,-1.2
CSc1nn(CC(=O)Nc2cccc(F)c2)c(N)c1S(=O)(=O)c1ccccc1,-0.46,/
Cc1cccc2cc3c(nc12)N(C(=O)c1ccccc1)CC3,-0.65,-1.8
Clc1ccc(CN2CCN(C3CCCCC3)CC2)cc1,0.71,-1.9
CCOc1cc(CNc2nnn(C)n2)ccc1OCc1ccc(Cl)cc1,0.31,/
Cc1cc2c(cc1S(=O)(=O)NCc1ccco1)n(C)c(=O)c(=O)n2C,1.1,/
N#Cc1nc(/C=C/c2cccs2)oc1N1CCN(C(=O)c2ccco2)CC1,0.59,-0.33
Cc1ccc(NS(=O)(=O)c2ccc(-c3ccc(=O)[nH]n3)s2)cc1F,0.33,/
CCCCc1nn2cc(-c3ccc(C)cc3)nc2s1,-0.23,-1.9
Cc1ccccc1CN[C@H]1CS(=O)(=O)C[C@@H]1S(=O)(=O)c1ccccc1,-2.5,-1.6
CC(SC1=Nc2ccccc2C2=NC(C(C)C)C(=O)N12)C(=O)NCc1cccs1 (stereo not drawn),-0.75,/
Cc1noc(C)c1S(=O)(=O)N1CCCC1C(=O)Nc1nccs1 (stereo not drawn),-0.48,-1.6
O=C(O)/C=C/C(=O)NNC(=O)c1ccccc1-n1cccc1,/,-0.78
Cc1cc(F)ccc1Nc1nc2ccccc2n2c(C)nnc12,0.98,-1.2
CC(C)CCNC(=O)CSc1nc(-c2ccc3c(c2)OCO3)nc2cc(=O)[nH]n12,1.5,/
CC(CCc1ccco1)NC(=O)CSc1c2c(nc3cc(Cl)ccc13)CCCC2 (stereo not drawn),1.1,-0.79
CCOc1ccc(-n2nnc(-c3nc(-c4ccncc4)no3)c2N)cc1,-1.9,/
O=C(CSc1ncnc2c1sc1cccc(F)c12)NCCc1ccco1,12*,/
O=[N+]([O-])c1cc(Br)c(O)c(/C=N/Nc2nc3ccccc3[nH]2)c1,/,-1.1
Cc1nc2ccc(S(=O)(=O)NC(C(=O)N3CC(C)CC(C)C3)C(C)C)cc2s1 (stereo not drawn),/,-0.43
COc1ccc(S(=O)(=O)Nc2c(-n3cnnc3)n[nH]c2C)cc1,1.1,0.95
O=C(Cn1c(=O)sc2ccccc21)N1CCN(c2ccccc2)CC1,0.53,-0.6
O=C(NC1CCCCC1)c1ccc2nc(N3CCOCC3)sc2c1,-0.23,-0.6
CC(=O)N1CCSc2ccc(S(=O)(=O)Nc3ccc(F)cc3)cc21,-0.14,/
CCC(CC)COC(=O)C1=C(C)NC(=O)CC1c1cc(OC)c(OC)cc1Br (stereo not drawn),-1.2,1.3
Cn1c(=O)c2c(SCc3ccccc3F)nc(-c3ccc(F)cc3)nc2n(C)c1=O,/,-1.4
COCCNC(=O)C1COc2ccc(OC)cc2C1 (stereo not drawn),0.17,/
O=C(CN1C(=O)CSc2ncccc21)NCCC1=CCCCC1,-0.41,-0.17
COc1ccc(-c2cn3cccnc3n2)cc1F,/,0.53
O=C(N1CCOCC1)N1CCC(n2nc(-c3ccccc3)oc2=O)CC1,1.1,-0.5
O=C(Nc1nnc(S(=O)(=O)N2CCc3ccccc32)s1)c1ccccc1Br,0.87,-0.36
CCCCN1C(C)=NS(=O)(=O)c2cc(C(=O)N3CCOCC3)ccc21,0.69,/
Cc1ccc2nncc(N3CCN(c4cccc(Cl)c4)CC3)c2c1,0.56,-1.3
O=S(=O)(NCCc1csc2nc(-c3ccc(Cl)cc3)nn12)c1cc(F)ccc1F,1.6,/
CCOC(=O)c1c(NC(=O)c2cccs2)sc(C(=O)N2CCCCCC2)c1C,/,0.03
O=S1(=O)C[C@H](N2CCN(Cc3ccc4c(c3)OCO4)CC2)[C@@H](S(=O)(=O)c2ccccc2)C1,2.7,-1.9
CCCc1nc(SCc2cc(=O)n3c4c(sc3n2)CCCC4)n[nH]1,0.25,/
Cc1cc(OCc2noc(-c3ccccc3F)n2)cc(C)c1Cl,0.14,1.2
CCOC(=O)Cc1nnn(CC(=O)OCC)n1,/,-0.35
Cc1ccc(-c2nnc(SCc3nc4ccccc4[nH]3)n2-c2ccc(C)cc2)cc1,/,-6.9
Cc1nc2scc(C)n2c(=O)c1S(=O)(=O)NC(C)c1ccccc1 (stereo not drawn),0.92,-0.25
CCc1nnc(SCC(=O)NCc2ccc(C)cc2)c2cc3occc3n12,-1.1,/
O=C1CC(=O)Nc2cc(S(=O)(=O)NC3CCCCCC3)ccc2N1,/,-0.47
CC1CCCN(c2nn3c(=O)c(C(=O)NCCN(C)C)cnc3s2)C1 (stereo not drawn),0.05,/
O=S(=O)(Nc1ccc2c(c1)OCO2)c1ccc(N2CCCCS2(=O)=O)cc1,-0.21,/
COc1cccc(C2Oc3ccccc3C3CC(c4ccccc4O)=NN32)c1OC (stereo not drawn),-1.1,1.1
CCC(=O)N1CCc2cc(S(=O)(=O)NC(CC(C)C)C(=O)O)ccc21 (stereo not drawn),3.4,/

# Later entries.
SMILES,HIV TAR-Tat,CDC25B CDK2 inh
Cc1ccc(S(=O)(=O)Oc2cc(=O)n(C)c3ccccc23)cc1,/,-1.9
O=C1CCCc2c1[nH]c1ccc(-c3ccccc3)cc21,1.2,-1.7
C=CCc1cccc2cc(C(=O)Nc3cccc4c3C(=O)c3ccccc3C4=O)c(=O)oc12,/,-4.3
CCOC(=O)c1ccc(NC2SC(=O)NC2=O)cc1 (stereo not drawn),-0.48,0.44
Cc1cc2c(c(=O)n1CC1CCCO1)C(c1ccco1)C(C#N)=C(N)O2 (stereo not drawn),/,0.19
OCCOCCNc1ncnc2c1cnn2-c1cccc(Cl)c1,2.1,/
Cc1c(C(=O)NC2CCC(C)CC2)sc2nc3n(c(=O)c12)CCCCC3 (stereo not drawn),0.42,/
NC(=S)NNC(=O)c1ccc([N+](=O)[O-])cc1,/,-2.8
CCCCC(=O)N(c1ccc2oc(=O)sc2c1)S(=O)(=O)c1ccc(OC)cc1,0.69,-4.9
O=c1c2[nH]c3ccc(F)cc3c2ncn1Cc1ccccc1,1.1,2.9
Cc1cccc(CNc2nc(N(C)C)nc3c2cnn3C)c1,1.2,/
NC(=O)c1cc[n+](CC2=C(C(=O)O)N3C(=O)[C@@H](NC(=O)[C@@H](c4ccccc4)S(=O)(=O)[O-])[C@H]3SC2)cc1,/,-1.4
COCCCNC(=O)c1cc2c(s1)-c1ccc(Cl)cc1SC2,1.7,-1.4
Cc1ccc(-c2nc3ccccc3c3nnc(SCC(=O)NC4CC4)n23)cc1,1.4,/
Cc1ccc(Nc2ncnc3c2cnn3C)c(C)c1,0.03,/
Cc1noc(C)c1C(=O)N=C(N)C12CC3CC(CC(C3)C1)C2,/,-1.8
Cc1ccccc1/C=C/c1c[nH]c2ccccc12,/,-0.72
CCN(Cc1cc(=O)n2nc(C3CC3)sc2n1)c1ccccc1,0.79,/
CCCCCOC(=O)C1=C(C)Nc2ncnn2C1c1cccs1 (stereo not drawn),0.78,-1.9
O=c1c2cc(Cl)ccc2[nH]c(=S)n1CCN1CCOCC1,/,-0.8
O=S1(=O)C[C@H](NCCc2ccc(Cl)cc2)[C@@H](S(=O)(=O)c2ccc(F)cc2)C1,-0.13,-1.1
O=c1cc(CSc2nc3ncccc3[nH]2)nc2ccccn12,1,/
COc1ccc(CN(C)CCc2ccccn2)cc1OCc1ccccc1,0.85,-1.3
CCN(CC)S(=O)(=O)c1ccc2c(c1)CC(C(=O)N1CCOCC1)N2C(C)=O (stereo not drawn),1.7,/
CC1(C)CN2C(=O)N(c3ccc4c(c3)OCCO4)C(c3ccccc3)N2C1 (stereo not drawn),0.31,/
O=C1NC(c2ccc(Cl)cc2)C(C(=O)c2ccc(Cl)cc2)C(O)(C(F)(F)F)N1 (stereo not drawn),/,-0.03
Cc1nn(C)c2c1c(-c1ccccc1)cc(=O)n2Cc1ccc2nonc2c1,1.1,/
Cc1nc2nc(NCc3cccs3)[nH]n2c(=O)c1CCC(=O)Nc1nccs1,0.73,-0.61
CC(C)(C)c1ccc(C(=O)Nc2cnc3ccccn3c2=O)cc1,0.5,-0.71
CCc1n[nH]c(=S)n1/N=C/c1ccc(-c2cc([N+](=O)[O-])ccc2C)o1,/,1.5
CCOC(=O)Cn1c(=O)oc2cc(S(=O)(=O)Nc3c(C)cc(C)cc3C)ccc21,/,-1
CS(=O)(=O)CC[C@@H](C(=O)NCCCc1ccccc1)N1Cc2ccccc2C1=O,0.66,-0.52
C/C(=N\NC(N)=S)c1cc2cc(Cl)ccc2o1,/,-1.7
Cc1ncc([N+](=O)[O-])n1CC(C)O (stereo not drawn),-0.91&1.5,/
O=C1c2ccccc2C(=O)N1c1nc(-c2ccc(Cl)cc2)cs1,/,-1.1
CCCCSc1nc2ccccc2n1CCO,/,0.19
O=C(Nc1ccc(-c2nc3cc(NC(=O)c4cccnc4)ccc3o2)cc1)c1cccnc1,-3.6,3.2
Cc1cccc(-c2nc(C)c(CCNS(=O)(=O)c3cccs3)s2)c1,1.3,/
CN1C(=O)CN(S(C)(=O)=O)CC1(C)C(=O)NCC(=O)NCc1cccs1 (stereo not drawn),2.2,/
COc1ccccc1C1C2=C(CC(C)(C)CC2=O)Nc2[nH]c(=O)[nH]c(=O)c21 (stereo not drawn),-1.3,-1.3

# Shown tab-delimited: part of the list above
molecule	HIV TAR-Tat	CDC25B CDK2 inh
O=C1c2ccccc2C(=O)N1c1nc(-c2ccc(Cl)cc2)cs1	/	-1.1
CCCCSc1nc2ccccc2n1CCO	/	0.19
O=C(Nc1ccc(-c2nc3cc(NC(=O)c4cccnc4)ccc3o2)cc1)c1cccnc1	-3.6	3.2
Cc1cccc(-c2nc(C)c(CCNS(=O)(=O)c3cccs3)s2)c1	1.3	/
CN1C(=O)CN(S(C)(=O)=O)CC1(C)C(=O)NCC(=O)NCc1cccs1 (stereo not drawn)	2.2	/

# (next part)
SMILES,HIV TAR-Tat,CDC25B CDK2 inh
COc1ccc(OC)c(-n2cc3c(c2-c2ccc(Cl)cc2)c(=O)n(C)c(=O)n3C)c1,1.2,-2
CCC(C)NC(=O)CN1C(=O)c2ccccc2S1(=O)=O (stereo not drawn),0.24,-0.01
Cc1ccc(-c2nc3nc(C)cc(N4CCN(c5ccccn5)CC4)n3n2)cc1,1.7,2.2
COc1cccc(C2Oc3ccccc3C3CC(c4ccccc4O)=NN32)c1 (stereo not drawn),1.4,0.05
C=CCSC1=C(C#N)C(c2ccccc2Cl)CC(=O)N1 (stereo not drawn),1.5,-0.82
COc1ccccc1Nc1ncnc2ccc(Br)cc12,/,-2.5
CN(C)S(=O)(=O)c1ccc2nc(NC(=O)c3ccc(S(C)(=O)=O)cc3)sc2c1,1.1,/
O=c1oc(-c2cccs2)nc2scc(-c3ccccc3)c12,0.34,0.1
CCOc1ccc(OCC)c(Nc2nc3ccccc3n3cnnc23)c1,0.11,-1.2
COC(=O)n1c(=O)oc2ccc(S(=O)(=O)N3CCCCC3)cc21,0.59,0.77
Cn1nc(C(F)(F)F)cc1-c1ccc(NC(=O)Nc2cccc(C(F)(F)F)c2)s1,/,-3.1
Cc1cc(C)cc(NC(=O)Nc2c[nH]c(=O)[nH]c2=O)c1,2.2,-1
O=C(Nc1ccc(F)cc1)C1CC2CSCN2C12C(=O)Nc1ccccc12 (stereo not drawn),-0.42,/
O=C(NC1CCCCC1)c1cccn2c(-c3ccc(F)cc3)nnc12,1.6,/
CN(CCCNC(=O)C1CCN(C(=O)c2cc3sccc3n2C)CC1)C1CCCCC1,1.9,-1.5

# One compound at a time, as listed above. Order of values: HIV TAR-Tat | CDC25B CDK2 inh
# C/C(=N\NC(N)=S)c1cc2cc(Cl)ccc2o1 in the list: / | -1.7
# O=C1NC(c2ccc(Cl)cc2)C(C(=O)c2ccc(Cl)cc2)C(O)(C(F)(F)F)N1 (stereo not drawn) in the list: / | -0.03
# CCOC(=O)c1c(NC(=O)c2cccs2)sc(C(=O)N2CCCCCC2)c1C in the list: / | 0.03

# Bioassay records from PubChem BioAssay.
